UUG fidelity = modulators of start codon recognition fidelity in yeast; S. cerevisiae UUG-firefly luciferase reporter, luminescence/redox ratio; activity score, % at 18.7 µM; 350,000 compounds, 0.13% hits;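 active means replicate mean at a twofold rise or more, about +100% in these data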;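 further: firefly luciferase made from a UUG start codon reports start codon fidelity; reporter light over untreated wells divided by growth signal over untreated wells; some hits fall short of that in this replicate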
HIV Env fusion = blocks HIV Env-driven cell-cell fusion; inhibition, % at 12.3 µM; HeLa-JRFL Env/CEM21 cell fusion, luciferase; 360,000 compounds, 1.1% hits;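 active means mean replicate inhibition score of at least 50 and every replicate individually at or above 50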;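 further: 0% = plate neutral controls and 100% = maraviroc near 300 nM; one replicate is shown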
Numbers without * were called inactive; [ ] = another dose, or the depositor's remark. Only part of the results is shown; the hit share may differ from the screen's.

mol	UUG fidelity	HIV Env fusion
CC(=O)N(C)C[C@H]1Oc2cc(C#Cc3cccnc3)ccc2S(=O)(=O)N([C@@H](C)CO)C[C@@H]1C	8	17[16.7 µM]
C[C@H](CO)N1C[C@H](C)[C@H](CN(C)Cc2ccc3c(c2)OCO3)OCc2cnnn2CCCC1=O	3	-23[16.7 µM]
CC(C)NC(=O)N(C)C[C@@H]1OCCCC[C@@H](C)Oc2ccc(NS(=O)(=O)c3ccc(F)cc3)cc2C(=O)N([C@H](C)CO)C[C@H]1C	-4	-58[16.7 µM]
CCS(=O)(=O)NCC[C@@H]1CC[C@@H](NC(=O)Nc2cc(Cl)cc(Cl)c2)[C@@H](CO)O1	4	3[16.7 µM]
COc1ccc(S(=O)(=O)Nc2ccc3c(c2)CC(=O)N([C@H](C)CO)C[C@@H](C)[C@@H](CN(C)Cc2ccc(C(=O)O)cc2)O3)cc1	-19	-16[16.7 µM]
C[C@@H]1CN([C@@H](C)CO)C(=O)Cc2cc(NS(=O)(=O)c3cn(C)cn3)ccc2O[C@@H]1CN(C)Cc1ccc(Cl)c(Cl)c1	0	-8[16.7 µM]
COCC(=O)Nc1ccc2c(c1)[C@@H]1C[C@@H](CC(=O)NCc3ccccc3)O[C@H](CO)[C@@H]1O2	-13	-18[16.7 µM]
COc1ccc(S(=O)(=O)Nc2ccc3c(c2)CC(=O)N([C@@H](C)CO)C[C@@H](C)[C@@H](CN(C)C(=O)Nc2c(C)noc2C)O3)cc1	6	33[16.7 µM]
COc1ccc(NC(=O)N(C)C[C@H]2Oc3ccc(NS(=O)(=O)c4ccc(Cl)cc4)cc3CC(=O)N([C@@H](C)CO)C[C@@H]2C)cc1	-16	5[16.7 µM]
CC(C)NC(=O)N(C)C[C@H]1Oc2ncc(-c3cccc(C#N)c3)cc2C(=O)N([C@H](C)CO)C[C@@H]1C	-4	1[16.7 µM]
COCC(=O)N(C)C[C@@H]1Oc2cc(-c3ccc(C#N)cc3)ccc2S(=O)(=O)N([C@H](C)CO)C[C@@H]1C	3	-4[16.7 µM]
C[C@H]1CN([C@@H](C)CO)S(=O)(=O)c2ccc(C#CC3(O)CCCC3)cc2O[C@@H]1CN(C)C(=O)c1ccccc1	4	-41[16.7 µM]
CO[C@@H]1CN(C)C(=O)c2ccc(NC(=O)c3ccccc3F)cc2OC[C@@H](C)N(CC2CC2)C[C@@H]1C	2	-1[16.7 µM]
C[C@@H]1CN([C@@H](C)CO)C(=O)c2cc(NS(=O)(=O)c3ccc(Cl)cc3)ccc2O[C@@H](C)CCCCO[C@H]1CN(C)C(=O)CCCN(C)C	15	-10[16.7 µM]
C[C@@H]1CN([C@@H](C)CO)C(=O)c2cc(-c3ccccc3F)cnc2O[C@@H]1CN(C)C(=O)NC1CCCCC1	-2	-27[16.7 µM]
CCNC(=O)C[C@@H]1CC[C@@H]2[C@H](COc3ccc(NC(=O)Nc4ccc(Cl)cc4)cc3C(=O)N2C)O1	15	27[16.7 µM]
Cc1ccc(S(=O)(=O)Nc2ccc3c(c2)C(=O)N([C@@H](C)CO)C[C@@H](C)[C@@H](CN(C)CC2CCCCC2)OCCCC[C@H](C)O3)cc1	27	-21[16.7 µM]
CCNC(=O)C[C@H]1CC[C@H]2[C@H](COc3ccc(NC(=O)c4ccc5c(c4)OCO5)cc3C(=O)N2C)O1	23	8[16.7 µM]
COc1ccc(CN(C)C[C@H]2OCCCC[C@H](C)Oc3ccc(NC(=O)Nc4cccc5ccccc45)cc3C(=O)N([C@H](C)CO)C[C@H]2C)cc1	39	29[16.7 µM]
C[C@@H]1CN([C@@H](C)CO)S(=O)(=O)c2ccc(-c3ccncc3)cc2O[C@@H]1CN(C)Cc1ccncc1	-10	7[16.7 µM]
COc1ccc(S(=O)(=O)Nc2ccc3c(c2)C(=O)N([C@H](C)CO)C[C@@H](C)[C@@H](CN(C)C(=O)Cc2ccccc2)OCCCC[C@@H](C)O3)cc1	15	-2[16.7 µM]
C[C@H](O)C#Cc1ccc2c(c1)O[C@@H](CN(C)Cc1cncnc1)[C@@H](C)CN([C@@H](C)CO)S2(=O)=O	-8	-7[16.7 µM]
COc1ccc(NC(=O)Nc2cccc3c2O[C@@H](CN(C)C(=O)NC2CCCCC2)[C@@H](C)CN([C@@H](C)CO)C3=O)cc1	4	15[16.7 µM]
C[C@H]1CN([C@@H](C)CO)C(=O)c2cc(NC(=O)Nc3ccc(F)cc3)ccc2O[C@H]1CN(C)C(=O)Nc1ccc(F)cc1	15	-12[16.7 µM]
C[C@@H]1CN([C@@H](C)CO)C(=O)Cc2cc(NC(=O)C3CC3)ccc2O[C@@H]1CN(C)C(=O)NC1CCCCC1	0	-7[16.7 µM]
O=C(C[C@H]1CC[C@H](NS(=O)(=O)c2ccccc2)[C@@H](CO)O1)N1CCc2ccccc2C1	-7	-2[16.7 µM]
C[C@@H]1CN([C@H](C)CO)C(=O)c2cc(C3=CCCCC3)cnc2O[C@@H]1CN(C)Cc1ccccc1	-4	-1[16.7 µM]
COc1cccc(NC(=O)N(C)C[C@@H]2Oc3cc(/C=C/c4ccccc4)ccc3S(=O)(=O)N([C@@H](C)CO)C[C@@H]2C)c1	17	16[16.7 µM]
C[C@@H]1CN([C@@H](C)CO)S(=O)(=O)c2ccc(-c3cccnc3)cc2O[C@@H]1CN(C)C(=O)CN(C)C	16	-23[16.7 µM]
CO[C@@H]1CN(C)C(=O)c2cc(NS(=O)(=O)c3ccc(F)cc3)ccc2OC[C@H](C)NC[C@@H]1C	-7	17[16.7 µM]
COCC#Cc1cnc2c(c1)C(=O)N([C@@H](C)CO)C[C@@H](C)[C@H](CN(C)C(=O)c1cccnc1)O2	-5	-9[16.7 µM]
COc1ccc(C(=O)Nc2ccc3c(c2)C(=O)N(C)C[C@@H](OC)[C@@H](C)CN[C@H](C)CO3)cc1	-9	4[16.7 µM]
C[C@H](CO)N1C[C@H](C)[C@H](CN(C)Cc2ccncc2)Oc2ccc(NC(=O)C3CC3)cc2C1=O	-17	-5[16.7 µM]
CC(C)NC(=O)N(C)C[C@@H]1Oc2cc(C#Cc3ccccn3)ccc2S(=O)(=O)N([C@H](C)CO)C[C@H]1C	5	-23[16.7 µM]
C[C@@H]1CN([C@H](C)CO)S(=O)(=O)c2ccc(Br)cc2O[C@H]1CN(C)C(=O)c1ccc2c(c1)OCO2	3	2[16.7 µM]
CCCNC(=O)N(C)C[C@H]1Oc2ncc(C#C[C@H](C)O)cc2C(=O)N([C@@H](C)CO)C[C@H]1C	8	12[16.7 µM]
C[C@H](CO)N1C[C@H](C)[C@H](CN(C)CC2CCCCC2)Oc2cc(C3=CCCC3)ccc2S1(=O)=O	42	1[16.7 µM]
C[C@@H]1CN([C@@H](C)CO)C(=O)c2cc(NS(=O)(=O)c3ccc(Cl)cc3)ccc2O[C@@H](C)CCCCO[C@@H]1CN(C)C(=O)NC1CCCCC1	4	-31[16.7 µM]
C[C@@H]1CN([C@@H](C)CO)C(=O)c2cc(-c3ccc(F)cc3)cnc2O[C@H]1CN(C)C(=O)c1ccc(F)cc1	11	-6[16.7 µM]
C[C@@H](NC(=O)C[C@H]1CC[C@H]2[C@@H](COC[C@H](O)CN2C)O1)c1ccccc1	-18	-7[16.7 µM]
N#C[C@@H]1[C@H](c2ccc(C#CC3CCCCC3)cc2)[C@@H](CO)N1C(=O)Cc1ccccn1	-14	4[16.7 µM]
CC(C)NC(=O)N(C)C[C@H]1Oc2cc(-c3cccnc3)ccc2S(=O)(=O)N([C@H](C)CO)C[C@H]1C	-6	8[16.7 µM]
Cc1noc(C)c1NC(=O)N(C)C[C@@H]1Oc2ccc(NC(=O)C3CC3)cc2CC(=O)N([C@@H](C)CO)C[C@@H]1C	-8	-21[16.7 µM]
C[C@@H]1CN([C@@H](C)CO)C(=O)Cc2cc(NC(=O)Nc3ccc(F)cc3)ccc2O[C@@H]1CN(C)Cc1ccc(Oc2ccccc2)cc1	19	-9[16.7 µM]
CC(C)CC#Cc1cnc2c(c1)C(=O)N([C@H](C)CO)C[C@@H](C)[C@H](CN(C)C(=O)c1cccnc1)O2	19	0[16.7 µM]
O=C(NC1CCCC1)N[C@H]1CC[C@@H](CC(=O)N2CCOCC2)O[C@H]1CO	-4	-21[16.7 µM]
C[C@H](CO)N1C[C@H](C)[C@H](CN(C)Cc2ccc(F)cc2)Oc2ncc(C3=CCCC3)cc2C1=O	14	11[16.7 µM]
C[C@H](CO)N1C[C@H](C)[C@H](CN(C)C(=O)c2cccnc2)Oc2ncc(Br)cc2C1=O	-8	-13[16.7 µM]
C[C@H]1CN([C@@H](C)CO)S(=O)(=O)c2ccc(-c3cccc(C#N)c3)cc2O[C@@H]1CN(C)C(=O)c1cccnc1	-10	-11[16.7 µM]
C[C@H]1CN([C@@H](C)CO)C(=O)c2cc(NC(=O)CCCN(C)C)ccc2O[C@@H]1CN(C)S(=O)(=O)c1ccccc1	-6	-15[16.7 µM]

Continuation.
mol	UUG fidelity	HIV Env fusion
O=C(C[C@@H]1C=C[C@H](NC(=O)Nc2ccc3c(c2)OCO3)[C@H](CO)O1)NCCCN1CCOCC1	-13	14[16.7 µM]
C[C@@H]1CCCCO[C@@H](CN(C)Cc2ccc(C(F)(F)F)cc2)[C@H](C)CN([C@H](C)CO)C(=O)c2cc(NC(=O)Nc3ccc4c(c3)OCO4)ccc2O1	-2	65*[16.7 µM]
C[C@@H]1CN([C@@H](C)CO)C(=O)c2cc(-c3cccc(C#N)c3)cnc2O[C@@H]1CN(C)Cc1cncnc1	-1	-19[16.7 µM]
CCNC(=O)C[C@@H]1C=C[C@@H](NC(=O)C2CCOCC2)[C@H](CO)O1	-9	3[16.7 µM]
C[C@H](CO)N1C[C@H](C)[C@H](CN(C)C(=O)Nc2ccc(C(F)(F)F)cc2)OCCCC[C@H](C)Oc2ccc(NS(C)(=O)=O)cc2C1=O	3	2[16.7 µM]
Cc1noc(C)c1S(=O)(=O)N(C)C[C@@H]1OCCCC[C@H](C)Oc2ccc(NS(=O)(=O)c3ccccc3)cc2C(=O)N([C@@H](C)CO)C[C@H]1C	-9	2[16.7 µM]
O=C(C[C@H]1C[C@H]2c3cc(NC(=O)C4CCOCC4)ccc3O[C@H]2[C@@H](CO)O1)NCc1ccccc1	-2	23[16.7 µM]
COc1ccc(S(=O)(=O)Nc2ccc3c(c2)C(=O)N([C@@H](C)CO)C[C@@H](C)[C@H](CN(C)Cc2ccc4c(c2)OCO4)OCCCC[C@H](C)O3)cc1	16	-97[16.7 µM]
CCC(=O)Nc1ccc2c(c1)C(=O)N(C)[C@@H]1CC[C@H](CC(=O)N[C@H](C)c3ccccc3)O[C@H]1CO2	18	6[16.7 µM]
CC(C)NC(=O)Nc1ccc2c(c1)C(=O)N([C@@H](C)CO)C[C@H](C)[C@@H](CN(C)S(=O)(=O)c1ccc(Cl)cc1)OCCCC[C@H](C)O2	22	-32[16.7 µM]
C/C=C/c1cnc2c(c1)C(=O)N([C@@H](C)CO)C[C@@H](C)[C@H](CN(C)Cc1ccc(F)cc1)O2	25	-17[16.7 µM]
COC(=O)C[C@H]1C[C@@H]2c3cc(NC(=O)Nc4ccc(C(F)(F)F)cc4)ccc3O[C@@H]2[C@@H](CO)O1	9	23[16.7 µM]
COc1cccc(-c2ccc3c(c2)O[C@@H](CN(C)Cc2cccnc2)[C@@H](C)CN([C@@H](C)CO)S3(=O)=O)c1	9	-4[16.7 µM]
O=C(N[C@@H]1CC[C@H](CC(=O)N2CCCCC2)O[C@@H]1CO)c1cccc(F)c1	-12	-30[16.7 µM]
C[C@H](CO)N1C[C@H](C)[C@H](CN(C)C(=O)CN2CCOCC2)Oc2ncc(C3=CCCC3)cc2C1=O	18	14[16.7 µM]
CCC(=O)Nc1ccc2c(c1)OC[C@H](C)N(C(=O)c1ccccc1F)C[C@@H](C)[C@H](OC)CN(C)C2=O	-4	-4[16.7 µM]
C[C@@H]1CN([C@@H](C)CO)C(=O)c2cc(C3=CCCC3)cnc2O[C@@H]1CN(C)C(=O)C1CCOCC1	-5	-48[16.7 µM]

9 entries from above, arranged by number of heavy atoms, smallest number first.
mol	UUG fidelity	HIV Env fusion
O=C(C[C@H]1CC[C@H](NS(=O)(=O)c2ccccc2)[C@@H](CO)O1)N1CCc2ccccc2C1	-7	-2[16.7 µM]
CO[C@@H]1CN(C)C(=O)c2cc(NS(=O)(=O)c3ccc(F)cc3)ccc2OC[C@H](C)NC[C@@H]1C	-7	17[16.7 µM]
COC(=O)C[C@H]1C[C@@H]2c3cc(NC(=O)Nc4ccc(C(F)(F)F)cc4)ccc3O[C@@H]2[C@@H](CO)O1	9	23[16.7 µM]
CCNC(=O)C[C@@H]1CC[C@@H]2[C@H](COc3ccc(NC(=O)Nc4ccc(Cl)cc4)cc3C(=O)N2C)O1	15	27[16.7 µM]
CO[C@@H]1CN(C)C(=O)c2ccc(NC(=O)c3ccccc3F)cc2OC[C@@H](C)N(CC2CC2)C[C@@H]1C	2	-1[16.7 µM]
C[C@@H]1CN([C@@H](C)CO)C(=O)Cc2cc(NS(=O)(=O)c3cn(C)cn3)ccc2O[C@@H]1CN(C)Cc1ccc(Cl)c(Cl)c1	0	-8[16.7 µM]
C[C@H]1CN([C@@H](C)CO)C(=O)c2cc(NC(=O)Nc3ccc(F)cc3)ccc2O[C@H]1CN(C)C(=O)Nc1ccc(F)cc1	15	-12[16.7 µM]
COc1ccc(S(=O)(=O)Nc2ccc3c(c2)CC(=O)N([C@H](C)CO)C[C@@H](C)[C@@H](CN(C)Cc2ccc(C(=O)O)cc2)O3)cc1	-19	-16[16.7 µM]
C[C@@H]1CN([C@@H](C)CO)C(=O)Cc2cc(NC(=O)Nc3ccc(F)cc3)ccc2O[C@@H]1CN(C)Cc1ccc(Oc2ccccc2)cc1	19	-9[16.7 µM]
